From PubChem
Arbovirus inh: antivirals against arbovirus infection; arbovirus infection cell-based antiviral screen; inhibition, % at 10 µM; actives 0.37% (n = 200,000);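 active = inhibition from about 30%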;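 note: bluetongue infection of BSR cells; cell survival read as ATP light after 72 h; 0% = infected wells without compound and 100% = uninfected wells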
YopH PTP inh: inhibitors of Yersinia enterocolitica YopH tyrosine phosphatase; inhibition, %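 (about 10 µM by stock and volumes)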; fluorescence Ex485/Em525; actives 0.16% (n = 140,000); AID 898;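 active = inhibition of 50% or more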;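 note: controls were vehicle for no effect and minimum signal wells for full effect; inactives centre near -20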
Mtb betalactam: beta-lactam sensitization of Mtb H37Rv. M. tuberculosis H37Rv growth with meropenem, percent inhibition; hits of this screen are not shown here. AID 434955. actives 0.27% (n = 330,000). inhibition, % at 25 µM;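 active = about 74% or more and at least 40 points above the plate without the antibiotic, then above 30% in a dose series; inconclusive = first-round hits that could not be retested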;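 note: growth measured after seven days incubation then overnight dye step; 0% = bacteria only wells and 100% = bacteria with antibiotic; twin plates without the antibiotic show which effects depend on it; some results filed as inactive read as strong as hits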
Mtb H37Rv: M. tuberculosis H37Rv growth inhibitors, H37Rv strain (AID 1626); actives 0.95% (n = 220,000); inhibition, % at 10 µM; hits with a dose series show IC50 in µM; M. tuberculosis H37Rv growth inhibition; higher % means a stronger effect;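 active = confirmed in a dose series; inconclusive = inhibition above 80% but not taken into the dose series; inactive = below 80% or under 30% at every dose of the series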;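 note: bacteria incubated seven days before Alamar blue readout; 0% = bacteria only wells and 100% = bacteria with antibiotic wells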
RecA splice inh: blocks M. tuberculosis RecA intein splicing; actives 0.75% (n = 290,000); AID 2221; cell-free RecA intein splicing, fluorescence; P9WHJ3; inhibition, %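 (about 9 µM by stock and volumes)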; in the data active = inhibition above about 30%; inconclusive = no clear call, values can overlap the other calls;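 note: 0% = vehicle wells and 100% = reference inhibitor control wells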
Target sequence (P9WHJ3 whole entry, looked up, canonical isoform): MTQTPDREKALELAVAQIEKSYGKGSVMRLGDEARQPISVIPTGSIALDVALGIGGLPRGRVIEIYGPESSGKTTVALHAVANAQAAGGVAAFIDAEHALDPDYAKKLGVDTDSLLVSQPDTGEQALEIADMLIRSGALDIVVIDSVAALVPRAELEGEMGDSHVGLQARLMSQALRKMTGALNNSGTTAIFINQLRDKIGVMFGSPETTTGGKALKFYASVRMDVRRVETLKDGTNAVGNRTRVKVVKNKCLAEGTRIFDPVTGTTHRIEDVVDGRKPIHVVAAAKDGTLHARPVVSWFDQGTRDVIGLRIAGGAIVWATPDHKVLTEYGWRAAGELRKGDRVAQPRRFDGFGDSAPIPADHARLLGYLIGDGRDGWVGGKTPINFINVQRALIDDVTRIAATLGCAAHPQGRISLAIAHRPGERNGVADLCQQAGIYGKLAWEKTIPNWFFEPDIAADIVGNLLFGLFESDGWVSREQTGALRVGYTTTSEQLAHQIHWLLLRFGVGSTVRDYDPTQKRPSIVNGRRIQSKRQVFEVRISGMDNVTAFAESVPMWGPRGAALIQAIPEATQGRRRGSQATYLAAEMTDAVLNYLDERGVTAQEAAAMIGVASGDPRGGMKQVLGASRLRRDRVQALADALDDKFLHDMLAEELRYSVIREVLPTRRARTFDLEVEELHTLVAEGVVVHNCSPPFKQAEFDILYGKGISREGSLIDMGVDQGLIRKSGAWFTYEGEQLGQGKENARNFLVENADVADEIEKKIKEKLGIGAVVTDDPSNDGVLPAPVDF
Arbovirus inh repeat: second read-out of Arbovirus inh, no call of its own (marks repeat the call); inhibition, %; measured here: 10K subset replicate screen; many hits read low in the repeat;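 first of two repeat runs on a subset; 0% = infected and 100% = uninfected wells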
* marks the source's active call; other numbers are inactive results; ? = inconclusive; nt = no result given.

Start of the listing, in advance, 16 compounds:
SMILES	Arbovirus inh	YopH PTP inh	Mtb betalactam	Mtb H37Rv	RecA splice inh	others
COc1ccc(NC(=O)CSc2ccc3nnc(CCNC(=O)c4ccccc4)n3n2)cc1OC	nt	nt	-1	nt	0.1
O=C(NC1=NCCS1)c1cc(-c2cccnc2)nc2ccccc12	2	nt	2	3%	1.2
Cn1c(=O)c2sc3c(c2n(CC(=O)Nc2ccccc2)c1=O)COC(C)(C)C3	nt	nt	-3	nt	1.7
COc1ccc(C(=O)Nc2ccc(S(=O)(=O)NC(C)=O)cc2)cc1[N+](=O)[O-]	4	nt	-5	-5%	0.2
CC(=O)c1ccc(N2CCN(C(=O)c3cc4c(s3)CCCC4)CC2)cc1	-3	nt	9	7%	5.7
S=C(Nc1ccc(Cl)cc1Cl)Nn1cnnc1	-2	-29	1	7%	-2.1
Cc1ccc(C(=O)NC(NCc2ccco2)C(Cl)(Cl)Cl)cc1 (stereo unspecified)	5	-23	-5	-3%	4.5
Cc1cc(C2=CC(C)(c3cc(C)oc3C)Nc3nc(C(F)(F)F)nn32)c(C)o1 (stereo unspecified)	8	6	0	-16%	nt
NC(=O)c1ccccc1N=Cc1cccnc1	nt	nt	-3	nt	-5.7
Cc1cc(C)n(CCC(=O)N2CCCC(Nc3ccc(F)cc3)C2)n1 (stereo unspecified)	nt	nt	-1	nt	3.3
O=C(NCCN1CCOCC1)C12CC3CC(C1)CC(c1ccccc1)(C3)C2	-5	nt	-1	0%	-0.2
COC(=O)COc1cccc(NS(=O)(=O)c2ccc(NC(C)=O)cc2)c1	-4	-37	6	-10%	0.7
CC1=C(C(=O)OCC2CCCCC2)C(c2ccc(O)cc2)NC(=O)N1 (stereo unspecified)	nt	nt	9	nt	18
CCCN(CC1CC1)C(=O)Nc1ccccc1C	0	-33	-4	-1%	17
O=C(N/N=C/c1cccc([N+](=O)[O-])c1)C1CC(=O)N(c2ccc(Cl)cc2)C1 (stereo unspecified)	8	-6	-14	3%	-0.2
CCCOC(=O)/C(C(N)=NCc1ccccc1)=C(\O)OCCC	7	12	38	-18%	-2.8

Main list (from the top)
SMILES	Arbovirus inh	YopH PTP inh	Mtb betalactam	Mtb H37Rv	RecA splice inh	others
COc1ccc(NC(=O)CSc2ccc3nnc(CCNC(=O)c4ccccc4)n3n2)cc1OC	nt	nt	-1	nt	0.1
O=C(NC1=NCCS1)c1cc(-c2cccnc2)nc2ccccc12	2	nt	2	3%	1.2
Cn1c(=O)c2sc3c(c2n(CC(=O)Nc2ccccc2)c1=O)COC(C)(C)C3	nt	nt	-3	nt	1.7
COc1ccc(C(=O)Nc2ccc(S(=O)(=O)NC(C)=O)cc2)cc1[N+](=O)[O-]	4	nt	-5	-5%	0.2
CC(=O)c1ccc(N2CCN(C(=O)c3cc4c(s3)CCCC4)CC2)cc1	-3	nt	9	7%	5.7
S=C(Nc1ccc(Cl)cc1Cl)Nn1cnnc1	-2	-29	1	7%	-2.1
Cc1ccc(C(=O)NC(NCc2ccco2)C(Cl)(Cl)Cl)cc1 (stereo unspecified)	5	-23	-5	-3%	4.5
Cc1cc(C2=CC(C)(c3cc(C)oc3C)Nc3nc(C(F)(F)F)nn32)c(C)o1 (stereo unspecified)	8	6	0	-16%	nt
NC(=O)c1ccccc1N=Cc1cccnc1	nt	nt	-3	nt	-5.7
Cc1cc(C)n(CCC(=O)N2CCCC(Nc3ccc(F)cc3)C2)n1 (stereo unspecified)	nt	nt	-1	nt	3.3
O=C(NCCN1CCOCC1)C12CC3CC(C1)CC(c1ccccc1)(C3)C2	-5	nt	-1	0%	-0.2
COC(=O)COc1cccc(NS(=O)(=O)c2ccc(NC(C)=O)cc2)c1	-4	-37	6	-10%	0.7
CC1=C(C(=O)OCC2CCCCC2)C(c2ccc(O)cc2)NC(=O)N1 (stereo unspecified)	nt	nt	9	nt	18
CCCN(CC1CC1)C(=O)Nc1ccccc1C	0	-33	-4	-1%	17
O=C(N/N=C/c1cccc([N+](=O)[O-])c1)C1CC(=O)N(c2ccc(Cl)cc2)C1 (stereo unspecified)	8	-6	-14	3%	-0.2
CCCOC(=O)/C(C(N)=NCc1ccccc1)=C(\O)OCCC	7	12	38	-18%	-2.8
Cc1nn(C(C)C(=O)Nc2ccc3c(c2)OCO3)c(C)c1[N+](=O)[O-] (stereo unspecified)	-14	nt	2	-5%	6.5
CN1CCN(C(=O)COc2ccc3ccccc3c2)CC1	nt	nt	-9	nt	-2.5
CCn1c(=O)cc(OCC(=O)NC(C)c2ccc3c(c2)OCCO3)c2ccccc21 (stereo unspecified)	-12	-12	-7	-7%	nt
COCCNCC(=O)Nc1ccc(OC(F)(F)F)cc1	18	nt	-5	-8%	-2.2
O=C(CCc1ccccc1)NC(NC(=S)Nc1ccc(Br)cc1)C(Cl)(Cl)Cl (stereo unspecified)	0	-14	11	-4%	0.0
CCOC(=O)C1CCN(C(=O)CNC(=O)OC(C)(C)C)CC1	4	-29	7	-11%	2.5
COc1ccc(NC(=O)Nc2ccccc2F)cc1Cl	-10	nt	-7	4%	1.8
Cc1ccc(S(=O)(=O)NCC(=O)NCC(=O)N2CCC(C)CC2)cc1	nt	nt	1	nt	0.1
CN1CCN(C(=O)c2ccc3c(Cl)c4c(nc3c2)CCCC4)CC1	nt	nt	-2	nt	1.9
SMILES	Arbovirus inh	YopH PTP inh	Mtb betalactam	Mtb H37Rv	RecA splice inh	others
Cc1ccc(N(C(=O)Cn2nnc(-c3ccc(C)o3)n2)C(C(=O)NC2CCCC2)c2ccncc2)cc1 (stereo unspecified)	nt	nt	4	nt	1.7
CC12CCC(C(N)=O)(c3nc4ccccc4nc31)C2(C)C (stereo unspecified)	7	3	2	-4%	0.6
COc1ccc(-c2nc3ccccc3c(=O)o2)cc1	12	nt	39	12%	11
O=C(O)CCCNS(=O)(=O)c1cccc2nsnc12	9	-19	-1	-7%	-0.5
Cc1ccc(-n2c(SCC(=O)N3c4ccccc4Sc4ccccc43)nnc2-c2ccncc2)cc1	-8	-3	-3	2%	-1.1
Cc1cc(C)nc(SCc2ccc(C(=O)N/N=C/c3ccncc3)cc2)n1	-2	nt	57	3%	nt
COc1ccccc1C(=O)NCC(c1cccs1)N1CCc2ccccc21 (stereo unspecified)	nt	nt	1	nt	19
O=C(COc1ccc(Cl)cc1Br)Nc1ccccc1N1CCCC1	nt	nt	3	nt	2.3
O=C(COc1ccc(Cl)cc1)NCc1nnc(SCC(=O)c2ccccc2)o1	3	-2	-11	1%	4.0
COC(=O)C1=C(C(=O)OC)[C@@H]2Nc3ccccc3[C@@]23C[C@@H](C(=O)OC)N(C(=O)c2ccco2)C3=N1	nt	nt	-10	-2%	-0.8
O=C(Nc1ccon1)c1ccc(S(=O)(=O)N2CCOCC2)cc1	-3	nt	-10	0%	-0.7
COc1ccc(S(=O)(=O)N(C)CC(=O)NC2CC2)cc1OC	nt	nt	?	nt	0.7
CCO[C@@H]1OC(C(=O)NC2CC2)=C[C@H](c2ccc(C(F)(F)F)cc2)[C@H]1CCCO	2	nt	-3	-8%	0.7
O=C1N=C(N2CCCCC2)S/C1=C\c1ccncc1	nt	nt	24	-13%	-0.9
O=C(CN1C(=O)NC2(CCCC2)C1=O)OCc1c(F)cccc1Cl	nt	nt	-9	nt	-0.9
Cc1ccccc1-n1c(=O)c2ccccc2n(CC(=O)NCc2ccco2)c1=O	5	nt	5	-2%	-0.3
CCOC(=O)c1cc2ccc(OC)c(OC)c2c(=O)s1	-5	-25	39	5%	-3.5
O=C(O)c1ccc2nc(-c3ccco3)c(-c3ccco3)nc2c1	3	nt	nt	-6%	-113
CSc1ccc(C(=O)C2CCCN(S(=O)(=O)c3c(C)noc3C)C2)cc1 (stereo unspecified)	0	nt	0	-4%	0.9
COCCN1CCn2c(nc3cc(NS(C)(=O)=O)ccc32)C1	nt	nt	-6	nt	0.9
COc1cccc2cc(C(C)N(CCCN3CCOCC3)C(=S)Nc3c(C)cccc3C)oc12 (stereo unspecified)	2	nt	-6	-4%	9.3
O=C(Nc1cc(Cl)ccc1N1CCOCC1)c1ccc(N2CCCCC2)c([N+](=O)[O-])c1	nt	nt	-1	nt	-0.5
CCSc1cc(C)nc2c(-c3ccccc3)c(C)nn12	1	-16	8	4%	-1.3
C=CCNc1sc(C(=O)c2ccccc2)c(N)c1-c1nc2ccccc2s1	1	-41	89	5%	0.0
CCOC(=O)CC(=O)CSc1nc2c(sc(=S)n2-c2ccccc2)c(=O)[nH]1	15	-45	-10	-8%	-1.1
SMILES	Arbovirus inh	YopH PTP inh	Mtb betalactam	Mtb H37Rv	RecA splice inh	others
O=C(NCc1cccs1)Nc1ccc2c(c1)OCO2	-14	-29	-8	-6%	-1.9
CCOC(=O)C1=C(C)NC(=O)NC1c1ccc(N(CC)CC)cc1 (stereo unspecified)	-1	-36	-1	8%	-2.9	Arbovirus inh repeat=2
Cc1nc2nc3c(cn2n1)C(=O)CCC3	8	-3	-4	nt	-1.8
Cc1ccc(-c2nnc(SCC(=O)NC3CCCC3)n2C)cc1	nt	nt	-8	nt	18
CN(C)CCCn1cnc2c(c1=N)C(c1ccccc1)c1ccc3ccccc3c1O2 (stereo unspecified)	nt	nt	95	nt	6.4
CCC(=O)Nc1nc2ccc(NC(=O)c3cc(OC)c(OC)c(OC)c3)cc2s1	-26	nt	4	4%	0.6
CCC1CCC(N2CCN(c3ccc([N+](=O)[O-])cc3)CC2)CC1 (stereo unspecified)	nt	nt	-2	nt	0.6
CC(OC(=O)Cn1c(C(F)(F)F)nc2ccccc21)C(N)=O (stereo unspecified)	6	13	-11	-19%	0.0
O=C(Nc1cccc2ccccc12)/C(Cl)=C/c1ccccc1	7	-27	99	?	5.7
CCC(C)n1cnc2c(c1=O)c1nc3ccccc3nc1n2-c1ccc2c(c1)OCCO2 (stereo unspecified)	-9	-27	14	nt	nt
Cc1ccc(OCc2nnc(NC(=O)OCC(C)C)s2)c(C)c1	6	-27	5	nt	-2.4
O=C(Nc1ccc2c(c1)OCO2)C1CCCN1C(=O)Nc1ccccc1F (stereo unspecified)	-5	13	-6	-10%	0.1
CCCCN1C(=O)C(=O)N(CC(=O)c2ccc3c(c2)OCO3)C1=O	nt	nt	-2	nt	1.5
Cc1cc(C)cc(NC(=O)Nc2cccc(S(N)(=O)=O)c2)c1	nt	nt	6	0%	8.7
Cc1ccc(S(=O)(=O)N2CCN(C(=O)N(C)C)CC2)cc1	0	nt	4	-6%	1.0
NC(=S)Cc1nc2n(n1)Cc1ccccc1-2	4	0	-10	-1%	3.8
O=C(CSc1ccc(Cl)cc1)N1CCC(c2nc3ccccc3s2)CC1	-20	4	77	9%	12
CCCCN(C1CCS(=O)(=O)C1)S(=O)(=O)c1ccc(OC)cc1 (stereo unspecified)	nt	nt	-11	nt	-2.0
CCN1C(=O)/C(=C\C=C2/C=CC=CN2CC)SC1=S	-12	9	11	4%	-0.7
CCOC(=O)N1CCN(C(=O)c2ccc(S(=O)(=O)Nc3cccc(C(F)(F)F)c3)cc2)CC1	nt	nt	-16	nt	2.3
N#CC1(Nc2cccc(Br)c2)C(=O)Nc2ccccc21 (stereo unspecified)	nt	nt	-4	18%	24
O=C(Nc1ccc(Br)cc1)c1ccc(CSC2=NCCS2)cc1	0	-50	1	4%	-2.3
O=C(CSc1nnc(CNC(=O)c2cccs2)o1)Nc1cccc(F)c1	nt	nt	14	nt	-3.7
COc1ccc(OCCSc2nnc3c(Cl)cc(Cl)cn23)cc1	2	-15	-1	-9%	-3.6
COc1ccccc1N1CCN(Cc2ccc(-c3ccccc3[N+](=O)[O-])o2)CC1	nt	nt	-2	nt	8.2
SMILES	Arbovirus inh	YopH PTP inh	Mtb betalactam	Mtb H37Rv	RecA splice inh	others
Cc1cc(Cl)cc2sc(NC(=O)c3ccco3)nc12	nt	nt	-6	nt	-8.7
COc1cc(N=c2oc3c(C)ncc(CO)c3cc2C(N)=O)cc(OC)c1OC	5	nt	0	3%	0.2
CC(=O)Nc1ccc(Nc2ccc(S(=O)(=O)C(F)(F)F)cc2[N+](=O)[O-])cc1	11	0	13	22%	-0.5
O=C(Cn1nnc(-c2cccs2)n1)N1c2ccccc2Sc2ccc(C(F)(F)F)cc21	11	-25	?	3%	1.5
COc1c(O)ccc(/C=N/NC(=O)c2ccc3c(c2)OCCO3)c1[N+](=O)[O-]	nt	nt	-4	-5%	-0.7
Cc1ccc2c(c1)S/C(=C/c1ccc[n+](CCO)c1)N2C	9	nt	-2	-1%	2.8
COc1ccc(C(=O)CCC(=O)N2CCN(c3cccc(Cl)c3)CC2)cc1	nt	nt	?	nt	2.0
CC1(C)Cc2c(cnn2-c2ccc(F)cc2)C(NC(=O)Cn2cncn2)C1 (stereo unspecified)	nt	nt	?	nt	1.8
CCNC(=S)N/N=C/c1ccc(C#N)cc1	5	nt	-8	0%	-1.1

These rows are one share of the data (hit frequency here may not be typical).
